VACV mCherry inh – qHTS for Stage-Specific Inhibitors of Vaccinia Orthopoxvirus: mCherry Reporter Primary qHTS. Vaccinia virus mCherry reporter infection, fluorescence; about a quarter of the inactives have no number. Potency, µM (doses to about 36.5 µM), for the others: at the highest dose activity change, negative = inhibition, usual class: inhibitors. hit rate 0.63% among 310,000; active = well fitted inhibition curve with a large enough effect; inconclusive = small, poorly fitted or top-dose-only effect; inactive = no such curve, though single readings can be large or run the other way; tested in A549 cells; further: nearly all actives have a fitted effect of over 35% in size; inactives centre near -10
Vaccinia Venus – qHTS for Stage-Specific Inhibitors of Vaccinia Orthopoxvirus: Venus Reporter Primary qHTS | Vaccinia virus Venus reporter expression, fluorescence | Potency, µM (doses to about 36.5 µM), for the others: at the top dose activity change, negative = inhibition, hits mostly inhibitors | hit rate 0.46% among 330,000 | AID 720580, 2013; active means well fitted inhibition curve with a large enough effect; inconclusive means small, poorly fitted or top-dose-only effect; inactive means no such curve, though single readings can be large or run the other way; tested in A549 cells; further: nearly all actives have a fitted effect of over 30% in size; inactives centre near -10
An asterisk follows results filed as active; & = joins results of further samples; [ ] = another dose, or the depositor's remark. On the % scale 0 is the no-effect control and ±100 the full control effect; potency means the concentration at half of the fitted maximal effect.

How did O=C(c1ccc(Cl)cc1)c1cnc2ccccn12 do in these assays?
VACV mCherry inh: inactive; Vaccinia Venus: -8%

How did COc1ccc(C(CNC(=O)CCc2ccsc2)N(C)C)cc1 (centres undefined) do in these assays?
VACV mCherry inh: -16%; Vaccinia Venus: 6%

Results for O=C(c1ccccc1)N1CCN(CCc2ccccn2)CC1 ?
VACV mCherry inh: inconclusive; Vaccinia Venus: -3%&-6%

What do the screens show for `O=C(C1CC1)N1CCN=C1SCc1ccc(Cl)cc1`?
VACV mCherry inh: -17%; Vaccinia Venus: -15%

How did CCNC(=O)CN(C1CCCCC1)S(C)(=O)=O do in these assays?
VACV mCherry inh: -13%; Vaccinia Venus: -26%

What do the screens show for `COc1ccc(N(C(=O)c2ccccc2C)S(=O)(=O)c2ccc3c(c2)n(C)c(=O)n3C)cc1`?
VACV mCherry inh: 5%; Vaccinia Venus: 0%

How did O=C(COC(=O)CNC(=O)c1ccccc1F)Nc1ccc(Cl)cn1 do in these assays?
VACV mCherry inh: -17%; Vaccinia Venus: -10%

What do the screens show for `Cc1ccccc1NC(=O)N(C(C)C)C(C)C`?
Vaccinia Venus: -9%

How did CCOC(=O)C1=C(C)N(Cc2ccccc2)C(=O)NC1c1ccccc1OS(=O)(=O)c1ccccc1[N+](=O)[O-] (centres undefined) do in these assays?
VACV mCherry inh: inconclusive; Vaccinia Venus: -29%

Results for S=C(Nc1cc(Cl)cc(Cl)c1)N1CCN(c2ccccn2)CC1 ?
VACV mCherry inh: -5%; Vaccinia Venus: -17%

How did Cc1ccc(C)c(CSc2ncccc2C(=O)O)c1 do in these assays?
VACV mCherry inh: inactive; Vaccinia Venus: -13%

What do the screens show for `CC1CCN(C(=O)CSc2nnc(-c3ccccc3)o2)CC1`?
VACV mCherry inh: -4%; Vaccinia Venus: -10%

How did Cc1ccc(C(C(=O)NC2CCCCC2)N2CCC3(CC2)OCCO3)cc1 (centres undefined) do in these assays?
VACV mCherry inh: -19%; Vaccinia Venus: -9%

Results for CN(Cc1ccccc1)C(=O)c1cc(-c2cccc(Cl)c2)on1 ?
VACV mCherry inh: -1%; Vaccinia Venus: 3%

How did CC(C)c1ccc(NC(=O)c2cc(S(=O)(=O)N3CCCCC3)c[nH]2)cc1 do in these assays?
VACV mCherry inh: -6%; Vaccinia Venus: -7%

How did CCC1(C)CC(=O)c2c(ccc3oc(C(=O)Nc4ccc(C(C)=O)cc4)c(C)c23)O1 (centres undefined) do in these assays?
VACV mCherry inh: -15%; Vaccinia Venus: -6%

What do the screens show for `COc1ccc2[nH]cc(CCNC(=O)C3CC3)c2c1`?
VACV mCherry inh: -18%; Vaccinia Venus: -20%

Results for O=C1NC(=O)C2(CCCc3ccc(N(CCCl)CCCl)cc32)N1 (centres undefined) ?
VACV mCherry inh: -28%; Vaccinia Venus: -15%

How did Cc1ccccc1OCC(=O)Nc1nnc(-c2ccco2)s1 do in these assays?
VACV mCherry inh: -13%; Vaccinia Venus: -5%

Results for NC(=O)COc1ccc(/C=N/NS(=O)(=O)c2ccccc2)cc1 ?
VACV mCherry inh: -2%; Vaccinia Venus: 0%

What do the screens show for `O=C1CC2(CCCCC2)CC(=O)N1CCc1ccccc1`?
VACV mCherry inh: -3%; Vaccinia Venus: -13%

What do the screens show for `O=C(O)c1ccc2oc(=O)c(S(=O)(=O)c3ccc(F)cc3)cc2c1`?
VACV mCherry inh: -11%; Vaccinia Venus: -6%

Results for COC(=O)c1cccc(NC(=O)CSc2nnc(C)n2C)c1 ?
VACV mCherry inh: inactive; Vaccinia Venus: -12%

Results for CC(=O)c1cc(CN2CCN(Cc3ccc(C)cc3)C(CCO)C2)cs1 (centres undefined) ?
VACV mCherry inh: -23%; Vaccinia Venus: -4%

What do the screens show for `COc1ccccc1NC(=S)N1CCN(C(=O)c2ccco2)CC1`?
VACV mCherry inh: 2%; Vaccinia Venus: -6%

Results for CCOc1ccc(CN(C)C(=O)c2ccc(NS(=O)(=O)c3ccc4[nH]c(=O)[nH]c4c3)cc2)cc1 ?
VACV mCherry inh: -2%; Vaccinia Venus: -16%

How did COC(=O)CCn1[nH]c(=O)c2ccccc2c1=O do in these assays?
VACV mCherry inh: -12%; Vaccinia Venus: 0%

What do the screens show for `CCOC(=O)C1CCCN(C(=O)c2cncc(Br)c2)C1` (centres undefined)?
VACV mCherry inh: -7%; Vaccinia Venus: -12%

Results for CCOC(=O)C1=C(COC(=O)[C@@H]2CCCN2S(=O)(=O)c2ccc(C)cc2)NC(=O)NC1C (some centres undefined) ?
VACV mCherry inh: inactive; Vaccinia Venus: 0%

How did Cc1cccc(NC(=S)N(CCN2CCOCC2)Cc2cc3cc4c(cc3[nH]c2=O)OCCO4)c1 do in these assays?
VACV mCherry inh: -6%; Vaccinia Venus: inconclusive

Results for COC(=O)C1CCN(C(=O)c2ccc(Cl)c(S(=O)(=O)NCc3ccco3)c2)CC1 ?
VACV mCherry inh: -23%; Vaccinia Venus: -24%

Results for O=C(Nc1ccc2oc(=O)ccc2c1)c1ccc2ccccc2c1 ?
VACV mCherry inh: 1%; Vaccinia Venus: -16%

How did CN(C)/C=N/c1ncc(-c2ncc(C(F)(F)F)cc2Cl)cn1 do in these assays?
VACV mCherry inh: -7%; Vaccinia Venus: -2%

Results for CCc1ccc(NCc2cc3ccc(OC)cc3n(CC(=O)Nc3c(C)cc(C)cc3C)c2=O)cc1 ?
VACV mCherry inh: -1%; Vaccinia Venus: 0%

What do the screens show for `Cc1ccccc1NC(=O)CSc1nnc(Cc2ccccc2)o1`?
VACV mCherry inh: -10%; Vaccinia Venus: -10%

Results for CCOC(=O)c1c(SCC(=O)Nc2nc3ccc(C)cc3s2)nc(=O)[nH]c1C ?
VACV mCherry inh: -12%; Vaccinia Venus: -12%

What do the screens show for `COCCCNC(=O)c1ccc(Cn2c(=O)c3ccccc3n(Cc3ccccc3C)c2=O)cc1`?
VACV mCherry inh: inconclusive; Vaccinia Venus: inconclusive

How did O=C(CCCN1C(=O)c2ccccc2C1=O)Nc1ccccc1 do in these assays?
VACV mCherry inh: -10%; Vaccinia Venus: -9%

What do the screens show for `COCc1ccc(CN2CCC(n3nccc3NC(=O)CCOc3ccccc3)CC2)o1`?
VACV mCherry inh: -14%; Vaccinia Venus: -17%

How did Cc1ccc(S(=O)(=O)Nc2ccc(N=Nc3ccc(O)cc3)cc2)cc1 do in these assays?
VACV mCherry inh: -11%; Vaccinia Venus: -5%

How did O=C(NCC1CCCCC1)NCC1CCCCC1 do in these assays?
VACV mCherry inh: 1%; Vaccinia Venus: 0%

What do the screens show for `O=C(CSc1ncn[nH]1)NCc1ccccc1`?
VACV mCherry inh: -6%; Vaccinia Venus: -5%

Results for C=CCSc1nnc2c(n1)OC(c1cccnc1)N(C(C)=O)c1ccccc1-2 (centres undefined) ?
VACV mCherry inh: -4%; Vaccinia Venus: -9%

How did O=C(O)c1ccccc1-c1csc(-c2ccccc2)n1 do in these assays?
VACV mCherry inh: 0%; Vaccinia Venus: -4%

How did CC(C)(C)SCCNC(=O)CN1C(=O)c2cccc3cccc1c23 do in these assays?
VACV mCherry inh: -10%; Vaccinia Venus: -5%

Results for CCOC(=O)C(NC(=O)OC(C)C)(Nc1nccs1)C(F)(F)F (centres undefined) ?
Vaccinia Venus: -3%

How did CCOC(=O)CSC1=Nc2ccccc2C2=NC(CC(=O)NCc3ccc(OC)cc3)C(=O)N12 (centres undefined) do in these assays?
VACV mCherry inh: -15%; Vaccinia Venus: -7%

How did CCC(C(=O)NCc1cccnc1)n1nc(C)c2sc3ccccc3c2c1=O (centres undefined) do in these assays?
VACV mCherry inh: -23%; Vaccinia Venus: -17%

How did O=C(C1CCCN(S(=O)(=O)c2cc(Cl)ccc2Cl)C1)N1CCCC1 (centres undefined) do in these assays?
VACV mCherry inh: -13%; Vaccinia Venus: -18%

Results for Cc1cccc(NC(=O)c2sc(-c3ccccc3)nc2-c2ccc([N+](=O)[O-])cc2)c1 ?
VACV mCherry inh: inconclusive; Vaccinia Venus: -10%

What do the screens show for `Cc1ccc(-n2nc(C)c3nc(CCC(=O)Nc4cccc(C)c4C)c(=O)n(C)c32)cc1`?
VACV mCherry inh: -13%; Vaccinia Venus: -16%

How did Cc1cccc(C(=O)NCCc2ccc(S(N)(=O)=O)cc2)c1[N+](=O)[O-] do in these assays?
VACV mCherry inh: -6%; Vaccinia Venus: -4%

What do the screens show for `COc1ccc(CC(=O)NO)cc1`?
VACV mCherry inh: -10%; Vaccinia Venus: -12%

What do the screens show for `C/C(=N\NC(=O)c1cccc(N/N=C(\C)c2ccc([N+](=O)[O-])cc2)c1)c1ccc([N+](=O)[O-])cc1`?
VACV mCherry inh: inactive[7.34 µM]; Vaccinia Venus: -10%[7.34 µM]

Results for CCCCn1c(N)c(N(CCC(C)C)C(=O)COC(=O)c2ccc([N+](=O)[O-])s2)c(=O)[nH]c1=O ?
VACV mCherry inh: -13%; Vaccinia Venus: inconclusive

How did Cc1ccc(S(=O)(=O)N(C)CC(=O)N2CCOCC2)cc1 do in these assays?
VACV mCherry inh: -12%; Vaccinia Venus: inconclusive

Results for CC(C)NC(=O)N1Cc2cc(C(=O)NCC(F)(F)F)nc(-c3cccc(-c4cc5ccccc5o4)c3)c2[C@@H]1CCO ?
VACV mCherry inh: inactive; Vaccinia Venus: -22%

Results for Cc1cc(C)nc(NCC(O)CNc2ccccc2C)n1 (centres undefined) ?
VACV mCherry inh: -5%; Vaccinia Venus: -4%

Results for CCN(CCn1cccn1)Cc1nc(-c2ccc(OC)cc2)no1 ?
VACV mCherry inh: -28%; Vaccinia Venus: -5%

What do the screens show for `Nc1nnc(CC(=O)N/N=C/c2cccc([N+](=O)[O-])c2)s1`?
VACV mCherry inh: -5%; Vaccinia Venus: -6%

Reprinted from the part before: 3 entries, followed by the next part.
Results for Cc1cc(C)nc(NCC(O)CNc2ccccc2C)n1 (centres undefined) ?
VACV mCherry inh: -5%; Vaccinia Venus: -4%

Results for CCN(CCn1cccn1)Cc1nc(-c2ccc(OC)cc2)no1 ?
VACV mCherry inh: -28%; Vaccinia Venus: -5%

What do the screens show for `Nc1nnc(CC(=O)N/N=C/c2cccc([N+](=O)[O-])c2)s1`?
VACV mCherry inh: -5%; Vaccinia Venus: -6%

What do the screens show for `COc1ccccc1C(=O)NCC(=O)OCC(=O)Nc1ccc2[nH]c(=O)[nH]c2c1`?
VACV mCherry inh: -15%; Vaccinia Venus: -9%

Results for Cc1cc(C)c(S(=O)(=O)c2ccccc2)c(Cl)n1 ?
Vaccinia Venus: 3%

What do the screens show for `Cc1cc(-n2c(C)cc(C(=O)COc3ccc([N+](=O)[O-])cc3)c2C)no1`?
VACV mCherry inh: -6%; Vaccinia Venus: -13%

What do the screens show for `COc1ccc(C(=O)N2CCCCC2c2cc(C(=O)NCc3cccnc3)no2)cc1` (centres undefined)?
VACV mCherry inh: -10%; Vaccinia Venus: -4%

How did Cc1ccccc1NC(=S)N1CCN(Cc2ccc3c(c2)OCO3)CC1 do in these assays?
VACV mCherry inh: -5%; Vaccinia Venus: -8%

Results for COc1ccc(NC(=O)C(NS(=O)(=O)c2ccc3c(c2)CCCC(=O)N3)C(C)C)c(OC)c1 (centres undefined) ?
VACV mCherry inh: -11%; Vaccinia Venus: -6%

Results for COP(=O)(NC(C)=O)SC (centres undefined) ?
VACV mCherry inh: inactive; Vaccinia Venus: -10%

What do the screens show for `O=C(COC(=O)Cn1cnc2ccccc21)Nc1ccc2c(c1)OCCO2`?
Vaccinia Venus: 4%

What do the screens show for `OCCN1CCN(c2ncnc3c2ncn3[C@H]2CN(Cc3cccs3)C[C@@H](CO)O2)CC1`?
VACV mCherry inh: -11%; Vaccinia Venus: -8%

How did CN(CC(=O)Nc1ccc(F)cc1)C(=O)c1ccc2ccccc2n1 do in these assays?
VACV mCherry inh: -16%; Vaccinia Venus: -1%

What do the screens show for `CCn1c(CNC(=O)c2ccc(OC)c(OC)c2)nnc1SCC(=O)c1ccc(OC)cc1`?
VACV mCherry inh: -14%; Vaccinia Venus: -6%

How did CCOC(=O)Cn1c(C)cc(COC)c(C#N)c1=O do in these assays?
VACV mCherry inh: -8%; Vaccinia Venus: -7%

What do the screens show for `O=C(Cn1ccc([N+](=O)[O-])n1)N1CCCc2ccccc21`?
VACV mCherry inh: inactive; Vaccinia Venus: -6%

How did Cc1ccc2oc(-c3cc(NC(=O)c4ccco4)ccc3Cl)nc2c1 do in these assays?
VACV mCherry inh: 4%; Vaccinia Venus: -3%

Results for CCCC1CCC(=NNS(=O)(=O)c2ccc(C)c([N+](=O)[O-])c2)CC1 (centres undefined) ?
VACV mCherry inh: -18%; Vaccinia Venus: -9%

Results for Cc1sc(-n2c(C)ccc2C)c(C#N)c1C ?
VACV mCherry inh: -1%; Vaccinia Venus: -15%

Sorted by heavy-atom count (ascending): three of the compounds above
Results for COP(=O)(NC(C)=O)SC (centres undefined) ?
VACV mCherry inh: inactive; Vaccinia Venus: -10%

How did CN(CC(=O)Nc1ccc(F)cc1)C(=O)c1ccc2ccccc2n1 do in these assays?
VACV mCherry inh: -16%; Vaccinia Venus: -1%

What do the screens show for `CCn1c(CNC(=O)c2ccc(OC)c(OC)c2)nnc1SCC(=O)c1ccc(OC)cc1`?
VACV mCherry inh: -14%; Vaccinia Venus: -6%
